# CSC inhib: cancer stem cell viability inhibitors, primary screen, luminescence; cancer stem cell-like cells viability; inhibition, % at 7.5 µM; hit rate 1.1% among 300,000;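 active means mean at 75% or more and at least half the replicates too; inconclusive means mean and replicates disagree; tested in HMLE shEcad cells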;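 further: 0% = median of negative and 100% = median of positive control wells; the first replicate is given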
# PABP polyA inh: PABP poly(A) RNA binding inhibitors, primary screen, biochemical, fluorescence polarization, uHTS. inhibition, % at 35 µM. hit rate 1% among 290,000. Polyadenylate-binding protein 1 (Homo sapiens), P11940;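 active means 50% or more with normal probe brightness, or confirmed in later tests; inconclusive means above 50% with abnormal brightness, or retests that disagree; inactive means below 50% or failed in later tests; about a fifth of its hits are not listed in these tables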;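 further: calls also rest on retests at 20 µM and on dose response follow-up; controls were probe without protein and protein plus probe with vehicle; some compounds called inactive have numbers as strong as hits; many hits fall short of the cut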
# Target sequence (P11940 whole entry, looked up): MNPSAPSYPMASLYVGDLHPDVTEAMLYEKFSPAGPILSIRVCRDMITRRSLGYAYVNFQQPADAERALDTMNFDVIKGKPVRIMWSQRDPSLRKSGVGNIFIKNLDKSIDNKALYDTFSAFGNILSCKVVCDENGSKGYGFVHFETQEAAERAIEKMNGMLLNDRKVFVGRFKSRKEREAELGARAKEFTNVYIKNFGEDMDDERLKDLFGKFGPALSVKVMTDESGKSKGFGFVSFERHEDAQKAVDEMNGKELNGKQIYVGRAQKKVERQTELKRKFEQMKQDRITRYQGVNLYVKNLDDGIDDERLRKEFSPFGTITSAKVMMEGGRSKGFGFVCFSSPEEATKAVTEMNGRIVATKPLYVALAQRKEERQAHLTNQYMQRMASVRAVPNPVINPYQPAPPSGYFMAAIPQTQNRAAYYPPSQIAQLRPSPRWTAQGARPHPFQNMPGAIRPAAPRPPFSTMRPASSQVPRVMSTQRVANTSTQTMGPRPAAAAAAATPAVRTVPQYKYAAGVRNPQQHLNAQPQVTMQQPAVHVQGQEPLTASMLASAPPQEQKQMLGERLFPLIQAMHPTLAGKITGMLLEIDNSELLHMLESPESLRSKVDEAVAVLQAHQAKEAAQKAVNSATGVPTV
# Rce1 inhib: yeast Rce1p protease inhibitors, primary screen, biochemical, fluorescence, cell-free homogeneous | calls only | hit rate 0.27% among 290,000 | yeast membranes, quenched prenylated peptide cleavage fluorescence;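 active means fall in fluorescence gain of 50% or more versus controls, with final raw signal at or below 3038400; inconclusive means same 50% fall but final raw signal above 3038400; inactive means fall in fluorescence gain under 50%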;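 further: plate controls were neutral control wells for no effect and wells lacking membranes for full effect; tested at 10 µM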
# Target sequence (Q03530 whole entry, looked up): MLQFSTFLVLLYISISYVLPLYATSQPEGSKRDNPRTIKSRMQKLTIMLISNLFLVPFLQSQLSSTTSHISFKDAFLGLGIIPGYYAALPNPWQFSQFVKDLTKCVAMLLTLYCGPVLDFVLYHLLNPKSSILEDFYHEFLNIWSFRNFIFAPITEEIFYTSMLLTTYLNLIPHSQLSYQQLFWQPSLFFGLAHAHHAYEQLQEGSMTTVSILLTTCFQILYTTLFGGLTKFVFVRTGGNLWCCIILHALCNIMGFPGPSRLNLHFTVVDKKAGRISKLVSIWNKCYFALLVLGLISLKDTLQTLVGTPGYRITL
# HIV Env fusion: inhibitors of HIV-1 Env-driven cell-cell fusion, primary screen, HeLa-JRFL effector, CEM21 target cells, luciferase; inhibition, % at 12.3 µM; hit rate 1.1% among 360,000;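 active means mean replicate inhibition score of at least 50 and every replicate individually at or above 50; inconclusive means only one of the two criteria met; inactive means mean below 50 and not all replicates reaching 50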;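 further: 0% = plate neutral controls and 100% = maraviroc near 300 nM; one replicate is shown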
# eIF4H FP inh: human eIF4H binding inhibitors, primary screen, translation initiation inhibitor project, biochemical, uHTS, fluorescence polarization; Eukaryotic translation initiation factor 4H (Homo sapiens), Q15056; eIF4H fluorescence polarization binding assay; inhibition, % at 35 µM; hit rate 0.94% among 290,000;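 active means 50% or more with normal probe brightness, or confirmed in later tests; inconclusive means above 50% with abnormal brightness, or retests that disagree; inactive means below 50% or failed in later tests; about a fifth of its hits are not listed in these tables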;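 further: calls also rest on retests at 20 µM and on dose response follow-up; 0% = protein and probe with vehicle and 100% = probe without protein; strong numbers were not always called active; many hits fall short of the cut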
# MT1-MMP act inh: blockers of MT1-MMP proenzyme processing, primary screen, HT1080 RFP-PRO-GFP cells, GFP/RFP fluorescence | Matrix metalloproteinase-14 (Homo sapiens), P50281 | GFP/RFP ratio fluorescence, overnight; percent of plate control window, DMSO zero | GFP/RFP ratio change, % at 20 µM | hit rate 0.061% among 360,000 | AID 651647, 2012;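 active means GFP/RFP ratio change of at least 30% with cell ATP level not reduced by more than half and red fluorescence within 50% of control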; further: strong numbers were not always called active
#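 Assay system: RFP-PRO-GFP reporter HT1080 cells; read-out basis: GFP/RFP fluorescence ratio; benchmarks: DMSO wells and RFP-L50D-GFP cells; doses: 20 µM single dose, 1% DMSO; schedule: overnight cell settling, then overnight compound exposure, 37 °C, 5% CO2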
# UUG fidelity: modulators of yeast start codon fidelity, primary screen, whole organism, S. cerevisiae, single point, plate reader | S. cerevisiae UUG-firefly luciferase reporter, luminescence/redox ratio | activity score, % at 18.7 µM | hit rate 0.13% among 350,000 | AID 602363, 2012;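 active means replicate mean at a twofold rise or more, about +100% in these data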;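 further: firefly luciferase made from a UUG start codon reports start codon fidelity; reporter light over untreated wells divided by growth signal over untreated wells; some hits fall short of that in this replicate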
# eIF4H FP inh retest: further read-out of eIF4H FP inh, marked with its call; inhibition, %; compound at 20 µM; confirmation average;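 mean of two retest wells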
# PABP polyA inh retest: also measured in PABP polyA inh; calls as there; inhibition, %; compound at 20 µM; confirmation repeats;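 mean of two retest wells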
# MT1-MMP act inh RFP: also measured in MT1-MMP act inh; calls as there; RFP signal change, %; measured here: RFP expression control read;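 0 = vehicle wells; hits needed this value within 50% of zero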
# * = called active by the depositor; i = inactive; ? = inconclusive; / = not tested or not shown. An unsorted share of the library; 2.9% or so of the library scored in one or more.
SMILES,CSC inhib,PABP polyA inh,Rce1 inhib,HIV Env fusion,eIF4H FP inh,MT1-MMP act inh,MT1-MMP act inh RFP,UUG fidelity,others
Cc1ccccc1C1C(C#N)=C2N=C(N)c3ccccc3N2C2=C1C(=O)CCC2 (stereo not given),-13.7,?,i,-28.3,?,3.9,0.6,0.9,
S=c1[nH]nc(-c2ccc(Cl)cc2)n1CC1CCCO1 (stereo not given),2.2,1.7,i,/,-0.1,0.4,-0.7,-13.5,
CC(C)N1CCN(c2ccc(OC[C@H]3CO[C@](Cn4cncn4)(c4ccc(Cl)cc4Cl)O3)cc2)CC1,51.6,/,/,-36.1,/,5.5,3.3,-8.4,
CC1=CC(C)(C)N(C(=O)CSc2ncn[nH]2)c2ccc(C)cc21,-8.6,-6.8,i,/,-4.4,1.6,1.2,-16.2,
CNC(=S)N/N=C/c1c(C)nn(-c2ccccc2)c1Cl,10.4,3.5,i,-238.8,4.3,2.4,-1.6,/,
Cc1ccc(/C=C2\SC(=S)N(CCCC(=O)Nc3ccc(O)cc3)C2=O)cc1,34.4,-0.9,i,63.6*,3.4,-3.7,-10.1,-16.5,
O=C(Cn1cnc([N+](=O)[O-])c1)NC1CCCC1,9.2,7.0,i,15.8,10.6,0.7,3.3,-14.6,
CC(=O)Nc1ccc(NC(=O)C2Cc3c(-c4ccc5c(c4)OCO5)ccnc3O2)cc1 (stereo not given),/,/,/,4.0,/,-1.8,2.5,-1.1,
Cn1c(=O)c2nc(-c3ccc(Cl)cc3Cl)oc2c2ccccc21,-16.0,-12.9,i,-11.0,-1.3,-3.1,0.5,-9.9,
Cc1ccc(S(=O)(=O)N2CCN=C2c2ccccc2)cc1C,-11.8,0.6,/,-162.2,-1.3,-4.7,1.7,-9.8,
CCCn1nnnc1SCC(=O)N1CCCC1,-9.3,3.4,i,9.8,-5.2,-2.3,0.0,-24.9,
COCCn1c(SC)nnc1-c1c[nH]c2ccccc12,-16.6,-2.2,i,-5.5,-1.9,-0.7,0.1,12.2,
CCOC(=O)c1cc2c(ccn2C)n1CC(=O)N(Cc1ccccc1)c1ccc(F)cc1,14.8,2.8,i,-118.0,-5.4,-2.9,1.6,-12.5,
COc1ccc(/C=N/NC(=O)CNC(=O)/C=C/c2ccccc2OC)cc1,4.1,5.5,i,-2.7,-1.3,-2.0,4.3,-6.4,
O=C(Nc1cccc(C(=O)O)c1)/C(=C\C=C\c1ccccc1)NC(=O)c1ccccc1,-9.9,7.8,i,-0.8,-3.4,7.6,5.8,/,
C=CC[C@@H](CC(=O)NCCO)C(=O)N[C@@H](COC(=O)[C@@H](CC=C)Cc1ccc(F)cc1)Cc1c[nH]c2ccccc12,-22.9,/,/,-89.2,/,2.7,0.3,-3.5,
C=CCC[C@@H](Cc1ccc(F)cc1)C(=O)OC[C@@H](Cc1c[nH]c2ccccc12)NC(=O)[C@H](CC=C)CC(=O)NCCO,-5.1,/,/,-11.4,/,1.6,1.3,-5.4,
CC(=O)OC(C(=O)NC1CCCCC1)c1ccc(C#N)cc1 (stereo not given),-10.6,-2.5,/,-11.5,3.8,1.7,5.3,-30.2,
CCc1cccc(NC(=O)CN(C)S(=O)(=O)c2cccc3cccnc23)c1,-6.2,-0.1,i,21.1,-8.5,0.8,-2.6,-16.1,
C=CCOC(=O)C1=C[C@H](c2coc3ccccc3c2=O)[C@@H](CCCO)[C@H](OCC)O1,-9.4,-6.4,i,9.2,-13.1,-3.3,-1.2,-0.7,
Cc1cc(C)nc(/N=C(\N)Nc2ccc([N+](=O)[O-])cc2)n1,-7.6,54.8,i,-12.0,-7.2,-1.2,3.1,/,eIF4H FP inh retest=-13.7;PABP polyA inh retest=3.6
O=C(CCN1C(=O)[C@@H]2Cc3ccccc3CN2C1=O)NCc1ccccc1Cl,-8.1,9.0,i,-3.1,12.8,1.2,5.9,/,
CN(C)CCNC(=O)C1Cc2c(-c3ccccc3Oc3ccccc3)ccnc2O1 (stereo not given),/,/,/,8.6,/,2.4,-0.1,-1.1,
CC(=O)Nc1ccc(S(=O)(=O)NCCC(=O)Nc2ccc(C)cn2)cc1,/,-13.1,i,-4.0,-10.4,-0.9,1.6,-13.3,
COc1ccc(-n2c(C)cc(C(=O)CN3C(=O)C(=O)N(Cc4ccccc4)C3=O)c2C)cc1,/,-3.8,i,7.4,-2.0,-2.7,-3.1,-15.1,

# Later entries
SMILES,CSC inhib,PABP polyA inh,Rce1 inhib,HIV Env fusion,eIF4H FP inh,MT1-MMP act inh,MT1-MMP act inh RFP,UUG fidelity,others
N=c1n(CCN2CCCC2)c2ccccc2n1CC(O)c1ccco1 (stereo not given),-3.4,28.0,i,-69.3,17.3,-9.9,3.5,-16.0,
CCn1c(SCC(=O)NCc2ccc3c(c2)OCO3)nnc1-c1ccco1,/,-1.8,i,18.5,5.3,-0.8,3.3,-4.1,
N#Cc1cnn2c(C(F)(F)F)c3c(nc12)CCCC3,-7.0,-3.8,i,-2.3,-2.1,-3.7,-3.5,/,
COC(=O)C1=C(C)N(c2ccc(C)cc2)/C(=C/c2cccs2)C1=O,-15.3,-2.4,i,-8.1,-5.3,-7.2,-11.6,-12.6,
CN(Cc1ccccc1)C(=O)COC(=O)c1ccc[nH]c1=O,-20.8,/,/,21.5,/,1.6,7.9,-8.9,
CCc1nc2ccc(C(=O)NCCCn3ccnc3)cn2c1N(C)Cc1ccc(OC)cc1,/,/,/,-2.6,/,0.4,-4.4,-1.7,
O=C(Cn1c2ccccc2c2nc3n(c(=O)c21)CCCS3)Nc1ccccc1,-5.3,/,i,3.8,/,-6.6,-1.4,-8.3,
C/C(CC(=O)Nc1ccc2c(c1)OCCO2)=N\NC(=O)c1ccc([N+](=O)[O-])cc1Cl,25.2,6.8,i,1.2,-1.8,-1.0,0.9,/,
Cc1ccc(-c2ccc(=O)n(CC(=O)NCCN(CC(C)C)CC(C)C)n2)cc1,-10.3,2.2,i,27.9,1.0,/,/,7.3,
CN(C)c1ccc(/C=N/NC(N)=S)cc1[N+](=O)[O-],-3.9,-8.7,i,10.8,6.2,12.6,-3.6,/,
Cc1cccc(C(=O)NNC(=O)c2cccc([N+](=O)[O-])c2)c1,-9.2,-1.7,i,-15.0,-2.6,0.9,2.7,/,
COc1ccc(NC(=O)C(c2ccccc2)N(C)C(=O)c2cnccn2)cc1 (stereo not given),-12.3,1.8,i,/,-0.5,4.2,6.5,-2.7,
CCN1CCN(c2nc3c(C)cccn3c(=O)c2/C=C(\C#N)S(=O)(=O)c2ccccc2)CC1,-11.3,27.2,i,/,16.3,-16.0,2.7,/,
c1ccc2[nH]c(CSc3nnc(-c4ccncc4)o3)nc2c1,-11.3,-6.4,i,/,1.7,0.7,7.3,-19.3,
O=C(O)c1cccc(NC(=O)C23CC4CC(C2)CC(n2cnc(Cl)n2)(C4)C3)c1,6.9,-1.0,i,/,-1.5,-2.0,4.0,12.6,
NC(=O)CC(NC(=O)Cc1cccc2ccccc12)c1ccc(NCc2cc(F)ccc2F)c([N+](=O)[O-])c1 (stereo not given),4.7,3.0,i,-167.9,-16.2,15.6,-5.4,-11.5,
O=C(Nc1ccc(F)c(Cl)c1)Nc1nnc([C@H]2C[C@H](O)[C@@H](CO)O2)s1,/,/,/,-30.1,/,-5.4,-3.0,-9.4,
COc1ccc(CCC(=O)OCC(=O)Nc2c(C)nn(-c3ccccc3)c2C)cc1,-7.5,/,i,6.3,/,3.8,4.0,/,
CC(C)CNS(=O)(=O)c1ccc(NC(=O)Cn2nc(-c3ccc(F)cc3)ccc2=O)cc1,-16.0,9.9,i,0.2,-8.8,-1.6,-2.3,-13.9,
NS(=O)(=O)CCCc1ccccc1,-7.2,4.8,i,0.2,4.7,3.1,5.7,-6.2,
C1CCC2(CC1)C1=C(CCCC1)Nc1nnnn12,-0.3,-5.0,i,-26.3,-5.7,-3.9,-0.3,4.8,
CC(=NCCCN(C)C)C1=C(O)c2ccccc2C1=O,/,2.2,i,/,-5.7,3.6,5.1,55.9,
COc1ccc(N2C(=O)[C@H]3CCC=C[C@H]3[C@@H]2c2ccccc2Br)cc1,/,/,/,-42.1,/,-3.4,-2.2,-6.5,
Cc1c(/C=N/NC(=O)c2cccnc2)c2ccccc2n1Cc1ccccc1,-4.7,-4.4,i,39.4,-1.6,-1.0,-20.0,-14.7,
COc1ccc(-c2nnc3sc(-c4ccccc4OC)nn23)cc1,0.1,-9.1,/,-113.3,-16.4,0.6,-5.2,-1.2,

# Additional results.
SMILES,CSC inhib,PABP polyA inh,Rce1 inhib,HIV Env fusion,eIF4H FP inh,MT1-MMP act inh,MT1-MMP act inh RFP,UUG fidelity,others
Cc1cc2nc(-c3cccnc3SCC(=O)NC3CC3)[nH]c2cc1C,4.4,-1.6,i,-18.0,-10.0,/,/,/,
CC1CCN(c2ccccc2NC(=O)c2ccc(F)cc2)CC1,4.9,-5.1,i,?,8.4,-9.6,-16.3,-16.2,
CCOC(=O)c1ccc(NC(=O)NCc2ccn(CC)n2)cc1,-14.6,-7.4,/,13.8,2.4,-3.6,-9.7,-12.7,
O=C(N/N=C\c1cccc([N+](=O)[O-])c1O)C1COc2ccccc2O1 (stereo not given),-2.7,-10.4,i,-30.0,8.8,5.2,1.4,-52.5,
CNc1nc(-c2ccc(OC)cc2)c(-c2ccc(OC)cc2)s1,25.3,-1.7,i,1.3,10.3,-0.3,-1.5,-15.1,
Cc1nc(NC(N)=S)sc1C(=O)Nc1ccccc1,-7.1,-2.2,i,-317.6,0.7,4.8,6.6,-10.5,
Cc1cc(C)nc(SCc2cc(=O)c(OC(=O)c3ccc(S(=O)(=O)N(C)C)cc3)co2)n1,6.6,3.6,i,14.4,8.3,3.2,4.9,8.1,
CC1CC(=O)c2cn3c(nc2C1)nc1ccccc13 (stereo not given),-2.5,0.3,/,-67.7,2.1,2.7,-3.0,-2.9,
CCCCn1c(SCC(=O)Nc2nnc(C)s2)nnc1-c1ccncc1,10.1,-7.9,i,7.8,-4.5,-0.7,-1.7,/,
CSc1ccc(-c2cccc3nncn23)cc1,/,/,/,-87.1,/,3.9,3.4,-16.2,
Fc1ccc(-c2nc3ccccc3c3nc4ccccc4n23)cc1,7.2,-11.8,i,-7.1,-12.7,-4.9,-8.5,/,
CC(C)c1ccc(-c2nn(-c3ccccc3)cc2C(=O)NCC2CCCO2)cc1 (stereo not given),-11.0,/,i,27.2,/,-9.1,-3.6,-10.2,
CC(=O)c1cccc(NC2c3ncccc3C(=O)N2Cc2ccco2)c1 (stereo not given),/,1.6,i,/,-3.1,1.9,4.1,-9.7,
Cc1cc(C)c(S(=O)(=O)NCC2CCC(C(=O)NCc3ccccn3)CC2)c(C)c1 (stereo not given),18.2,23.1,i,7.1,-8.4,2.5,-0.6,/,
O=C(NCc1ccco1)C(c1cccnc1)N(C(=O)Cn1nnc2ccccc21)c1ccc(F)cc1 (stereo not given),-5.1,-3.9,/,/,-13.0,4.8,3.6,11.2,

# Source: PubChem
